# Screens: PubChem, National Center for Advancing Translational Sciences (NCATS)
# D2 potentiator: human D2 receptor positive allosteric modulation; DiscoveRx D2 beta-arrestin cells, luminescence, 90 min; 100% = 57 uM dopamine signal; potentiation, % (concentration not given with the values); 0.23% of 360,000 active; AID 624464; active = potentiation of 50% or more; inconclusive = 30% to 50%; inactive = 30% or less;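 further: compound concentration not given in the record; tested on top of an EC20 dose of dopamine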
# Target sequence (P14416 whole entry, looked up): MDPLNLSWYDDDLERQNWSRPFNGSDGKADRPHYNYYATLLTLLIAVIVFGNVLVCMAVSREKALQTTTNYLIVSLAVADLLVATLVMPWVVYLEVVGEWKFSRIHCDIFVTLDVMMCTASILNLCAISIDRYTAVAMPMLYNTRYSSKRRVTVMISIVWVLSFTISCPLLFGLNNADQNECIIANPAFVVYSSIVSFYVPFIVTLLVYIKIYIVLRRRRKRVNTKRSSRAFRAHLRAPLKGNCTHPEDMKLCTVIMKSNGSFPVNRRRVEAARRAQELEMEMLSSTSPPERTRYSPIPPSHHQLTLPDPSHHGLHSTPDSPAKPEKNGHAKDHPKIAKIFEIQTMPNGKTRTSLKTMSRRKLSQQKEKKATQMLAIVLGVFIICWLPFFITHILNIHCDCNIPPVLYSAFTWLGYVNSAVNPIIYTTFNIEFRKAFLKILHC
#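 D2 cells co-treated with compound plus 50 nM dopamine (EC20) for 90 min at 37 deg C to detect potentiation. Beta-arrestin recruitment was read as enzyme-fragment luminescence after 1 h at ambient temperature. Full response was set by 57 uM dopamine.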
# CtBP-E1A blk: CtBP/E1A binding inhibition; AlphaScreen GST-E1A/His-CtBP binding, 1536-well; stronger effect = lower value; control for the full effect not named in the record; activity change, % (test concentration not listed); 0.49% of 340,000 active; AID 651724; in the data active means activity change below about -65%; inconclusive means about -30% to -65%; inactive means above about -30%; further: on the % scale 0 is the no-effect control and ±100 the full control effect; compound concentration not given in the record
#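 Homogeneous bead-based format: GST-tagged E1A captured on glutathione donor beads, His-tagged CtBP on nickel acceptor beads; compounds precede bead addition by 2 h at 37 °C.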
# D2 agonist: agonists of human D2 dopamine receptor (beta-arrestin); activation, % (test concentration not listed); DiscoveRx PathHunter D2 beta-arrestin, luminescence, 90 min; 100% = 57 uM dopamine signal; 0.084% of 360,000 active; P14416; AID 624465; in the data active = activation above about 40%; inconclusive = about 15% to 40%; inactive = below about 15%; further: compound concentration not given in the record; the text of the record calls up to 30% inactive
#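 DiscoveRx PathHunter D2 beta-arrestin cells (2,100/well) attached overnight, then compound-stimulated 90 min at 37 C in HBSS/10 mM HEPES/0.1% Tween-20 buffer; beta-galactosidase complementation read by luminescence after 1 h at ambient temperature. Dopamine 57 uM final (EC100) as control.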
# gsp antagonist: antagonists of gsp mutant (McCune-Albright syndrome); AID 624288; 0.4% of 340,000 active; Potency, µM (highest dose often 76.9 µM), inactives show at the highest dose activity change, negative = inhibition, most hits filed as inhibitors; gsp-mutant cells, cAMP HTRF, 30 min; control for the full effect not named in the record; active = falling curve of any shape with a large fitted effect; inconclusive = falling curve, mostly with a smaller effect; inactive = flat or rising curve; cell line not stated here;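 further: intracellular cAMP measured with PDE inhibitor Ro 20-1724 present during compound exposure; potency means the concentration at half of the fitted maximal effect; on the % scale 0 is the no-effect control and ±100 the full control effect; nearly all actives have a fitted effect of over 65% in size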
#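 Cells in G418 medium, seeded 16-24 h, 37C; buffer exchange to DPBS + 1 mM CaCl2, 0.5 mM MgCl2, 0.05% BSA; cpds in DMSO + […] (300 uM stock), 30 min 37C; HTRF cAMP detection.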
# gsp ag: activates gsp, the McCune-Albright syndrome mutation. gsp mutant cells, cAMP HTRF, 30 min; control for the full effect not named in the record. Potency, µM (series often up to 76.9 µM), inactives show at the highest dose activation (cAMP increase), hits mostly activators. 0.13% of 340,000 active. AID 624287; active = well fitted activation curve with a large enough effect; inconclusive = small, poorly fitted or top-dose-only effect, or another doubt; inactive = no such curve, though single readings can be large or run the other way; cell line not stated here;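 further: phosphodiesterase inhibitor Ro 20-1724 added with compounds to block cAMP breakdown; potency means the concentration at half of the fitted maximal effect; nearly all actives have a fitted effect of over 60% in size; about a fifth of the inactives were tested at one dose only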
#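 Cells stably selected in G418 were plated at 2000/well, grown 16-24 hr, then given compounds in DMSO with the PDE inhibitor […] (300 uM solution added) for 30 min at 37C; cAMP was read by HTRF.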
# Six1-Eya2 inh: blocks human Six1 binding to Eya2 | activity change, % (test concentration not listed) | 0.56% of 360,000 active | Q15475+O00167 | AID 651725 | AlphaScreen GST-Six1/His-Eya2 binding, biochemical; stronger effect = lower value; control for the full effect not named in the record; in the data active = activity change below about -65%; inconclusive = about -30% to -65%; inactive = above about -30%; further: on the % scale 0 is the no-effect control and ±100 the full control effect; compound concentration not given in the record
#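 AlphaScreen luminescence read after one hour at 37 °C in darkness. Pin-transferred compounds met GST-Six1 and His-Eya2 protein (5X stock 250 nM/500 nM) plus glutathione donor and Ni-chelate acceptor beads (5X, 50 ug/mL).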
# * marks the source's active call; other numbers are inactive results; ? = inconclusive; / = no result given; [ ] = remark or other dose. This is a random part of the collection; any-hit rate near 1.4%.
# Sequence of screens: Six1-Eya2 inh	gsp ag	CtBP-E1A blk	D2 potentiator	D2 agonist	gsp antagonist
C/C(=N\NC(=O)c1c(Br)cnn1C)c1ccc(NC(=O)c2ccc(F)cc2)cc1
  3	?	-1	-1	-0.7	10%
COc1cc(C2NC(=O)CCC2[N+](=O)[O-])c(OC)cc1Br (stereo not given)
  0	-2%	2	-6	-1.8	-4%
S=C(N/N=C/c1ccc(Cl)c(Cl)c1)Nc1ccccc1Cl
  0	-6%[15.4 µM]	-1	8	1.3	-1%
CC(=O)/C(N=Nc1ccc(SC(F)F)cc1)=C(\C)O
  -9	1%	-22	-5	-7.7	-2%
Cc1ccc(SCc2nc(N)nc(Nc3ccccc3C)n2)cc1C
  -6	-28%	/	1	5.5	-12%
Cc1cc(Cl)c(S(=O)(=O)N2CCCC2)cc1OCC(N)=O
  15	5%[15.4 µM]	-21	-2	-6.9	-6%
Cc1cc(=O)n(CC=C(Cl)Cl)c2ccccc12
  -1	-7%	2	-27	-2.3	-27%
CN(C)CCCNC(=O)C1(O)c2cc(Br)ccc2NC(=O)N1c1c(F)cccc1F (stereo not given)
  7	?	/	-9	?	8%
C=CCNC(=S)/N=c1/ccccn1CC
  7	9%[15.4 µM]	4	-6	-6.5	8%
O=C(Cn1nnc(-c2ccc(S(=O)(=O)N3CCCC3)cc2)n1)NCC1CCCO1 (stereo not given)
  0	-36%[inhibitor]	5	6	-2.4	4%
CCOC(=O)c1[nH]c2ccccc2c1NC(=O)C(CC)CC
  1	?	8	-4	-1.2	7%
CC(C)N(Cc1nc(-c2ccc(Cl)cc2)no1)Cc1nccn1C
  -13	-9%	-7	-12	-0.5	4%
COCCCN(C(=O)c1ccc(N2CCCC2=O)cc1)c1c(N)n(Cc2ccccc2)c(=O)[nH]c1=O
  0	-41%[inhibitor]	6	-4	-1.0	-5%
Cc1cc(C)c(O)c(-c2cc(C(=O)Nc3ccc(S(=O)(=O)N4CCOCC4)cc3)[nH]n2)c1
  -18	1%	?	16	3.9	28µM*
Cc1ccnc(NC(=O)CNC(=O)c2cccs2)c1
  4	-19%[15.4 µM]	-1	-13	-4.2	12%
O=C(CN1C(=O)NC2(CCCc3ccccc32)C1=O)Nc1ccccc1OC(F)F (stereo not given)
  -1	18%	-2	1	-0.9	14%
COc1ccc(CCN2C(=O)CC(C(N)=O)SC2=Nc2ccccc2)cc1OC (stereo not given)
  11	-31%[inhibitor]	-11	3	-4.6	2%
CCOc1ccccc1C(=O)NCC(=O)OCCOc1cccc(Cl)c1
  2	-34%[inhibitor]	5	-14	-12	-6%
CC(=O)c1c(C)[nH]c(C2=NNC(=NC(C)(C)C)SC2)c1C
  -1	-6%	3	-6	-0.4	8%
Cn1c(SCC(=O)N/N=C/c2ccccn2)nnc1-c1ccccc1
  -8	-1%[15.4 µM]	-12	-8	0.7	1%
CCOC(=O)c1c(C)nc2ccc(C)cn12
  3	?	-3	-22	-0.3	9%
CSc1nc(NC(C)(C)C)nc(N2CCOCC2)n1
  -3	5%	-2	-14	-4.1	13%
CCCN1CCC(=NNC(=O)CSc2cc(C)c(Br)cc2C)CC1
  -2	14%	-18	-20	-4.5	7%
O=c1c2cn[nH]c2nc(SCc2ccccc2F)n1-c1ccc(Br)cc1
  -10	2%[15.4 µM]	0	4	7.4	-24%
CC(C)(C)c1cc(CCC(=O)N2CCNCC2)c(C(C)(C)C)cc1O
  -2	-3%	1	11	1.9	3%
c1csc(C2=Nn3c(nnc3-c3ccncc3)SC2)c1
  -4	8%	-5	20	-1.7	-6%
C/C(=N\O)c1ccc2[nH]ccc2c1
  1	10%	0	7	0.6	0%
NS(=O)(=O)c1ccc(NC(=S)N2CCCC2)cc1
  -15	?	-3	-9	0.3	7%
O=C1c2ccccc2NC(c2ccccc2)N1NS(=O)(=O)c1ccccc1 (stereo not given)
  4	?	3	-10	-0.1	-6%
Cc1ccc(-c2nnc(N3CCCCC3)c3ccccc23)cc1
  -3	-33%	2	-12	-2.7	35µM*

# In the list so far, these have a thiophene ring, fused or not:
# Sequence of screens: Six1-Eya2 inh	gsp ag	CtBP-E1A blk	D2 potentiator	D2 agonist	gsp antagonist
Cc1ccnc(NC(=O)CNC(=O)c2cccs2)c1
  4	-19%[15.4 µM]	-1	-13	-4.2	12%
c1csc(C2=Nn3c(nnc3-c3ccncc3)SC2)c1
  -4	8%	-5	20	-1.7	-6%

# Some of these compounds in order of formula weight, descending:
# Sequence of screens: Six1-Eya2 inh	gsp ag	CtBP-E1A blk	D2 potentiator	D2 agonist	gsp antagonist
COCCCN(C(=O)c1ccc(N2CCCC2=O)cc1)c1c(N)n(Cc2ccccc2)c(=O)[nH]c1=O
  0	-41%[inhibitor]	6	-4	-1.0	-5%
Cn1c(SCC(=O)N/N=C/c2ccccn2)nnc1-c1ccccc1
  -8	-1%[15.4 µM]	-12	-8	0.7	1%
CC(=O)/C(N=Nc1ccc(SC(F)F)cc1)=C(\C)O
  -9	1%	-22	-5	-7.7	-2%
CSc1nc(NC(C)(C)C)nc(N2CCOCC2)n1
  -3	5%	-2	-14	-4.1	13%
C=CCNC(=S)/N=c1/ccccn1CC
  7	9%[15.4 µM]	4	-6	-6.5	8%

# More entries
# Sequence of screens: Six1-Eya2 inh	gsp ag	CtBP-E1A blk	D2 potentiator	D2 agonist	gsp antagonist
CCOC(=O)C1CCN(C(=O)c2cccc(C(=O)N3CCC(C(=O)OCC)CC3)c2)CC1
  -10	-25%	-11	-3	-1.2	5%
CC1CCCN(CC(=O)Nc2ccc(S(=O)(=O)N3C(C)CCCC3C)cc2)C1 (stereo not given)
  -4	-92%[inhibitor]	0	-10	-1.4	/
O=C(CCC(=O)N(CC(=O)NC1CCCCC1)c1ccc(F)cc1)Nc1ccccn1
  -1	18%[15.4 µM]	23	-9	-0.4	/
CCCCc1ccc(Nc2nc(N3CCOCC3)nc(N3CCOCC3)n2)cc1
  -2	-26%	5	-2	-6.3	-14%
C=CCSc1nc(O)c(CC)c(=O)n1C(C)CC (stereo not given)
  2	-58%[inhibitor]	1	-3	0.6	4%
CCCCNC(=O)OCC(CC)NC(=O)OC(C)C (stereo not given)
  1	-9%	5	-1	2.9	7%
Cc1ccccc1-n1nc2c(c1NC(=O)C1CC1)CS(=O)(=O)C2
  -2	-47%[inhibitor]	4	2	1.9	/
CCOC(=O)C1CCCN(Cc2ccccc2Cl)C1 (stereo not given)
  8	-43%[inhibitor]	6	-12	1.9	1%
CCOC(=O)c1cc2c(c(CCO)n1)[C@@H](CCO)N(S(=O)C(C)(C)C)C2 (stereo not given in full)
  4	/	5	/	-4.3	8%
O=C(NCCOc1ccccc1Cl)C(=O)NCCOc1ccccc1Cl
  -1	-18%	8	2	2.6	5%
O=C(C[n+]1ccc2ccccc2c1)c1ccccc1
  1	11%[15.4 µM]	0	-5	-1.3	9%
Cc1nnc(-c2ccc(N3CCOCC3)c([N+](=O)[O-])c2)o1
  -3	-3%	/	2	-4.5	3%
C/C(=N\OCC(=O)Nn1c(=O)[nH]c2ccccc2c1=O)c1ccccc1
  3	?	-2	-5	-2.5	4%
Cc1noc(C)c1CSCC(=O)Nc1ccc(Br)cc1Cl
  6	-12%	13	20	13	-8%
Cc1cn([C@H]2C[C@H](O)[C@@H](CNCc3ccc4ncccc4c3)O2)c(=O)[nH]c1=O
  -2	?	-1	0	-4.6	/
O=C1c2ccccc2C(=O)N1c1cc([N+](=O)[O-])ccn1
  -6	7%[15.4 µM]	-3	-6	-4.9	10%
C=CCNC(=O)c1ccccc1NC(=O)COc1ccc(OC)cc1
  14	-12%	3	-15	-0.4	6%
Cc1ccc(NC(=O)CSc2nnc(CNC(=O)c3ccco3)n2C)cc1C
  -5	18%	2	-1	-3.0	11%
Cn1c(SCC(=O)Nc2ccccc2)nc2c([nH]c3ccccc32)c1=O
  6	25%	-1	3	2.7	7%
CC(C)(C)c1cc(C(=O)Nc2cccnc2)cc(C(=O)Nc2cccnc2)c1
  -4	2%[15.4 µM]	-22	-7	0.0	-14%
Cc1ncc([N+](=O)[O-])n1CC(=O)NCc1ccccc1
  1	3%	8	-6	-1.6	1%
Cc1ccc(C)c(NC(=O)C(OC(=O)c2ccc(C)s2)c2ccccc2)c1 (stereo not given)
  2	-17%[15.4 µM]	0	-3	-2.2	-10%
Cc1ccc2c(CSc3nnc(C4CC4)n3N)cc(=O)oc2c1C
  -1	-29%	-2	4	-2.5	3%
CC(=O)c1ccc(NS(=O)(=O)c2cc3c(cc2C)N(C(C)=O)CCO3)cc1
  2	-37%[inhibitor]	-4	-21	-11	-8%
C=CCn1c(SCCC#N)nnc1-c1ccncc1
  5	-18%	7	-1	-1.8	-4%
O=C(O)c1ccc(S(=O)(=O)c2ccc3c(c2)C(=O)N(c2ccccc2[N+](=O)[O-])C3=O)cc1
  0	6%[15.4 µM]	-4	-9	-1.8	8%
CN(C)S(=O)(=O)c1cccc(NC(=O)COC(=O)c2cccc(S(=O)(=O)N3CCc4ccccc4C3)c2)c1
  -5	?	-7	-4	-7.8	-2%
Cc1cc(=O)[nH]c(CN2CCOCC2)n1
  3	4%	-16	-4	0.3	10%
Cc1ccc(-c2cc(C(=O)N/N=C/C=C/c3ccco3)c3ccccc3n2)cc1C
  -6	-6%	-2	-11	-5.6	-2%
COc1ccc(CC(=O)N(C)CC(=O)Nc2ccccc2C(F)(F)F)cc1S(=O)(=O)N1CCOCC1
  1	-18%	-20	-4	-0.9	3%

# Further structures
# Sequence of screens: Six1-Eya2 inh	gsp ag	CtBP-E1A blk	D2 potentiator	D2 agonist	gsp antagonist
CCNC(=O)N(CCOC)CC1CCCN(C2Cc3ccccc3C2)C1 (stereo not given)
  5	11%	4	-14	6.7	-11%
CCOC(=O)c1cnc(-c2ccccc2)nc1Oc1ccccc1
  64	?	55	-3	1.4	-19%
CC(C)CNC(=O)C1Nc2ccc(C(F)(F)F)cc2C2C=CCC12 (stereo not given)
  1	-63%[inhibitor]	5	-17	-2.2	6%
O=C(NCc1nnnn1-c1ccc(Cl)cc1)c1ccc(Br)o1
  0	13%[15.4 µM]	14	-3	-0.7	13%
COc1ccc(CCN2Cc3c(cccc3[N+](=O)[O-])C2=O)cc1OC
  9	1%	-1	-1	0.4	4%
CN(C)/C=C1\C=C2C(=O)c3ccccc3N2C1=O
  -10	50%	0	4	4.8	?
C[C@H](C(=O)CC(=O)OC(C)(C)C)[C@H](O)c1ccc(C(F)(F)F)cc1
  11	/	5	-20	0.7	-2%
